Screening results (PubChem)
A1 apoptosis 2: A1 inhibitors via caspase activation, primary screen, cell-based, luminescence, HTS, two replicates | MEF A1-2A-BIM cells, caspase-Glo luminescence, 3 h; percent of clofoctol response, DMSO zero | caspase activation, % (concentration not given with the values) | 24,000 tested, under 10 active; in the data active = caspase activation above about 5.9%;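 also: wells of about 30 µL received 50 nL stock; the first replicate is given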
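Material: A1-2A-BIM-expressing MEF cells. Buffer or medium: RPMI-1640 plus 10% FBS. Incubation: cells settled overnight, compound exposure 3 h at 37 °C, 5% CO2. Signal: Caspase-Glo 3/7 luminescence, 1 h at room temperature.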
The depositor's hits bear a star. Some of the compounds tested; the hit share may differ from the screen's.

SMILES | A1 apoptosis 2
C[C@@H]1CN([C@H](C)CO)C(=O)c2cc(N(C)C)ccc2O[C@@H](C)CCCCO[C@H]1CN(C)C(=O)c1ccncc1 | -0.2
Cc1noc(C)c1NC(=O)Nc1ccc2c(c1)C(=O)N([C@H](C)CO)C[C@@H](C)[C@H](CN(C)Cc1ccc(Oc3ccccc3)cc1)O2 | -0.9
C[C@@H]1CN([C@H](C)CO)C(=O)c2cccc(NC(=O)c3cnccn3)c2O[C@@H]1CN(C)C(=O)Nc1ccccc1 | 1.3
COc1ccc(S(=O)(=O)N(C)C[C@H]2OCCCC[C@@H](C)Oc3ccc(NS(=O)(=O)c4cn(C)cn4)cc3C(=O)N([C@H](C)CO)C[C@H]2C)cc1 | 0.7
C[C@@H]1CN([C@H](C)CO)C(=O)Cc2cc(NC(=O)Cc3ccccc3)ccc2O[C@H]1CN(C)C(=O)Nc1ccc2c(c1)OCO2 | 0.6
Cc1ccc(S(=O)(=O)Nc2ccc3c(c2)C(=O)N([C@@H](C)CO)C[C@@H](C)[C@H](CN(C)C(=O)C2CCCCC2)OCCCC[C@H](C)O3)cc1 | 0.8
C[C@@H]1CCCCO[C@H](CN(C)C(=O)CCCN(C)C)[C@H](C)CN([C@H](C)CO)C(=O)c2cc(N(C)C)ccc2O1 | -0.6
COCCOC(=O)N1C(=O)[C@@]2(c3cc(C#CC4=CCCCC4)ccc31)[C@H](C(N)=O)[C@H]1C(=O)O[C@H](c3ccccc3)[C@H](c3ccccc3)N1[C@@H]2c1ccc(O)cc1 | -0.8
C[C@@H]1CCCCO[C@H](CN(C)S(=O)(=O)c2cn(C)cn2)[C@@H](C)CN([C@@H](C)CO)C(=O)c2cc(NS(C)(=O)=O)ccc2O1 | -0.6
C[C@H]1CN([C@@H](C)CO)C(=O)Cc2cc(NC(=O)Nc3ccc4c(c3)OCO4)ccc2O[C@H]1CN(C)S(C)(=O)=O | -0.1

Entries listed so far that have two or more sulfur atoms (two):
SMILES | A1 apoptosis 2
COc1ccc(S(=O)(=O)N(C)C[C@H]2OCCCC[C@@H](C)Oc3ccc(NS(=O)(=O)c4cn(C)cn4)cc3C(=O)N([C@H](C)CO)C[C@H]2C)cc1 | 0.7
C[C@@H]1CCCCO[C@H](CN(C)S(=O)(=O)c2cn(C)cn2)[C@@H](C)CN([C@@H](C)CO)C(=O)c2cc(NS(C)(=O)=O)ccc2O1 | -0.6

Carrying on.
SMILES | A1 apoptosis 2
C[C@H]1CCCCO[C@H](CN(C)S(=O)(=O)c2cn(C)cn2)[C@@H](C)CN([C@@H](C)CO)C(=O)c2cc(NS(C)(=O)=O)ccc2O1 | 0.1
CNC[C@@H]1OCCCC[C@H](C)Oc2ccc(NC(=O)Nc3ccccc3)cc2C(=O)N([C@H](C)CO)C[C@H]1C | 1.3
Cc1ccc(S(=O)(=O)Nc2ccc3c(c2)C(=O)N([C@@H](C)CO)C[C@H](C)[C@@H](CN(C)Cc2ccc(Cl)c(Cl)c2)OCCCC[C@@H](C)O3)cc1 | -0.3
C[C@H](CO)N1C[C@H](C)[C@H](CN(C)S(=O)(=O)c2ccc(F)cc2)Oc2ccc(NS(C)(=O)=O)cc2C1=O | 0.5
Cc1noc(C)c1NC(=O)Nc1ccc2c(c1)CC(=O)N([C@@H](C)CO)C[C@H](C)[C@H](CN(C)S(=O)(=O)c1c(C)noc1C)O2 | -0.3
C[C@H]1CN([C@@H](C)CO)C(=O)c2cc(NS(=O)(=O)c3cccs3)ccc2O[C@@H]1CN(C)Cc1ccc(-c2ccccc2)cc1 | -0.5
Cc1ccc(S(=O)(=O)N(C)C[C@H]2Oc3ccc(NC(=O)C4CC4)cc3C(=O)N([C@H](C)CO)C[C@H]2C)cc1 | 0.0
C[C@@H]1CN([C@H](C)CO)C(=O)Cc2cc(NS(C)(=O)=O)ccc2O[C@H]1CN(C)Cc1ccc(-c2ccccc2)cc1 | 0.5
C[C@H]1CN([C@@H](C)CO)C(=O)c2cc(NC(=O)Nc3ccc4c(c3)OCO4)ccc2O[C@@H]1CN(C)Cc1ccc(C(=O)O)cc1 | -0.2
C[C@H](CO)N1C[C@H](C)[C@@H](CN(C)Cc2ccc(Oc3ccccc3)cc2)Oc2ccc(NC(=O)C3CCCCC3)cc2CC1=O | 0.3
C[C@@H]1CN([C@H](C)CO)C(=O)c2cc(NC(=O)CCN3CCOCC3)ccc2O[C@H]1CN(C)S(=O)(=O)c1cn(C)cn1 | 0.7
C[C@@H]1CN([C@@H](C)CO)C(=O)Cc2cc(NC(=O)C3CC3)ccc2O[C@H]1CN(C)Cc1ccc(Oc2ccccc2)cc1 | -0.2
C[C@H](CO)N1C[C@H](C)[C@@H](CN(C)Cc2ccc(C(=O)O)cc2)Oc2ccc(NS(=O)(=O)c3ccccc3)cc2C1=O | -0.6
CC(C)NC(=O)N(C)C[C@@H]1Oc2ccc(NS(=O)(=O)c3cn(C)cn3)cc2CC(=O)N([C@@H](C)CO)C[C@H]1C | 0.1
Cc1noc(C)c1NC(=O)N(C)C[C@@H]1Oc2ccc(NC(=O)Cc3cn(C)c4ccccc34)cc2C(=O)N([C@@H](C)CO)C[C@@H]1C | -0.8
C[C@@H]1CN([C@H](C)CO)C(=O)c2cc(NC(=O)Nc3ccc4c(c3)OCO4)ccc2O[C@H]1CN(C)S(=O)(=O)c1cccs1 | -1.4
C[C@@H]1CN([C@@H](C)CO)C(=O)c2cccc(NC(=O)Nc3ccc(F)cc3)c2O[C@@H]1CN(C)Cc1ccccc1 | 0.1
Cc1noc(C)c1S(=O)(=O)Nc1ccc2c(c1)CC(=O)N([C@@H](C)CO)C[C@H](C)[C@@H](CN(C)Cc1ccccc1)O2 | -0.6
COc1ccc([Si](C)(C)[C@@H]2[C@@H](CCO)O[C@]3(C(=O)N(c4ccccc4)c4ccccc43)[C@H]2C)cc1 | 0.1
COc1ccc(S(=O)(=O)N(C)C[C@H]2OCCCC[C@@H](C)Oc3ccc(NS(=O)(=O)c4ccc(F)cc4)cc3C(=O)N([C@H](C)CO)C[C@H]2C)cc1 | 0.9
C[C@@H]1CCCCO[C@H](CN(C)S(=O)(=O)c2cccs2)[C@H](C)CN([C@@H](C)CO)C(=O)c2cc(NC(=O)CCC(F)(F)F)ccc2O1 | 0.4
C[C@H]1CN([C@@H](C)CO)C(=O)CCCn2nncc2CO[C@H]1CN(C)Cc1ccc(O)cc1 | 0.0
CCOC(=O)C1C2C=CC3(O2)C1C(=O)N(Cc1ccccc1)C3C(=O)NCc1ccccc1 (configuration not stated) | 0.4
C[C@@H]1CN([C@H](C)CO)C(=O)c2cccc(NS(=O)(=O)c3cccs3)c2O[C@H]1CN(C)C(=O)Nc1cccc2ccccc12 | -0.5
C[C@H](CO)N1C[C@H](C)[C@H](CN(C)Cc2ccc3c(c2)OCO3)Oc2ccc(NC(=O)CCCCCC(=O)Nc3ccccc3N)cc2CC1=O | 1.3
C[C@H]1CN([C@@H](C)CO)C(=O)c2cccc(NC(=O)c3ccncc3)c2O[C@@H]1CN(C)Cc1ccc(Oc2ccccc2)cc1 | -0.7
COc1ccc(NC(=O)N(C)C[C@H]2Oc3c(NC(=O)c4ccc(-c5nccs5)cc4)cccc3C(=O)N([C@@H](C)CO)C[C@@H]2C)cc1 | 0.8
C[C@H](CO)N1C[C@H](C)[C@@H](CN(C)C(=O)Nc2cccc3ccccc23)Oc2ccc(NC(=O)Cc3cn(C)c4ccccc34)cc2C1=O | -0.6
C[C@@H]1CCCCO[C@@H](CN(C)Cc2ccc(C(=O)O)cc2)[C@@H](C)CN([C@@H](C)CO)C(=O)c2cc(NS(=O)(=O)c3cccs3)ccc2O1 | -0.4
COc1ccc(S(=O)(=O)Nc2ccc3c(c2)CC(=O)N([C@@H](C)CO)C[C@@H](C)[C@H](CN(C)C(=O)Nc2ccc(F)cc2)O3)cc1 | 0.7
CC(C)NC(=O)Nc1ccc2c(c1)C(=O)N([C@H](C)CO)C[C@H](C)[C@@H](CN(C)C(=O)NC1CCCCC1)OCCCC[C@H](C)O2 | 0.8
C[C@@H]1CN([C@@H](C)CO)C(=O)Cc2cc(NC(=O)C3CC3)ccc2O[C@@H]1CN(C)C | 0.0
C[C@@H]1CN([C@@H](C)CO)C(=O)c2cccc(NS(=O)(=O)c3cn(C)cn3)c2O[C@@H]1CN(C)C(=O)NC1CCCCC1 | -0.7
C[C@@H]1CCCCO[C@@H](CN(C)C(=O)c2ccccc2)[C@H](C)CN([C@@H](C)CO)C(=O)c2cc(NS(C)(=O)=O)ccc2O1 | 1.4
C[C@@H]1CN([C@@H](C)CO)C(=O)Cc2cc(N(C)C)ccc2O[C@H]1CN(C)C(=O)Nc1cccc2ccccc12 | -1.8
C[C@H]1CN([C@@H](C)CO)C(=O)c2cc(NS(=O)(=O)c3cn(C)cn3)ccc2O[C@H]1CN(C)C(=O)Nc1ccc2c(c1)OCO2 | 0.0
C[C@H]1CN([C@@H](C)CO)C(=O)CCCn2nncc2CO[C@@H]1CN(C)S(=O)(=O)c1ccc(Oc2ccccc2)nc1 | -0.1
C[C@@H]1CN([C@H](C)CO)C(=O)c2cccc(NC(=O)C3CCCCC3)c2O[C@H]1CN(C)CC1CC1 | -1.2
C[C@H]1CN([C@@H](C)CO)C(=O)Cc2cc(NS(C)(=O)=O)ccc2O[C@@H]1CN(C)S(=O)(=O)c1cn(C)cn1 | 0.0
CNC[C@H]1OCCCC[C@@H](C)Oc2ccc(N(C)C)cc2C(=O)N([C@H](C)CO)C[C@@H]1C | 0.7
COc1ccc(S(=O)(=O)Nc2ccc3c(c2)CC(=O)N([C@H](C)CO)C[C@@H](C)[C@@H](CN(C)C(=O)NC(C)C)O3)cc1 | -0.5
C[C@@H]1CN([C@@H](C)CO)C(=O)c2cccc(NC(=O)c3cnccn3)c2O[C@@H]1CN(C)S(=O)(=O)c1ccc(Cl)cc1 | 0.9
C[C@H]1CN([C@@H](C)CO)C(=O)c2cc(NC(=O)C3CC3)ccc2O[C@H]1CN(C)Cc1ccc(Cl)c(Cl)c1 | -0.6
CC(C)NC(=O)N(C)C[C@H]1Oc2c(NC(=O)Nc3ccc(C(F)(F)F)cc3)cccc2C(=O)N([C@H](C)CO)C[C@@H]1C | 1.3
C[C@H](CO)N1C[C@H](C)[C@H](CN(C)S(=O)(=O)c2cccc(C#N)c2)OCc2cn(nn2)CCCC1=O | 2.2
C[C@@H]1CN([C@@H](C)CO)C(=O)c2cc(NC(=O)c3ccncc3)ccc2O[C@H]1CN(C)C(=O)Nc1ccc(F)cc1 | -0.5
Cc1ccc(S(=O)(=O)Nc2ccc3c(c2)C(=O)N([C@@H](C)CO)C[C@@H](C)[C@H](CN(C)C(=O)c2ccccc2)OCCCC[C@H](C)O3)cc1 | -1.5
C[C@@H]1CN([C@H](C)CO)C(=O)c2cccc(NS(=O)(=O)c3ccc(F)cc3)c2O[C@@H]1CN(C)Cc1ccc(Oc2ccccc2)cc1 | -0.4
C[C@@H]1CN([C@H](C)CO)C(=O)CCCn2cc(nn2)CO[C@H]1CN(C)C | 0.2
COc1ccccc1CN(C)C[C@H]1OCc2cnnn2CCCC(=O)N([C@@H](C)CO)C[C@@H]1C | 0.7

Carrying on.
SMILES | A1 apoptosis 2
C[C@H](CO)N1C[C@H](C)[C@H](CN(C)C(=O)Nc2ccc(F)cc2)Oc2ccc(NC(=O)Cc3cn(C)c4ccccc34)cc2CC1=O | 0.5
C[C@@H]1CN([C@@H](C)CO)C(=O)c2cc(NC(=O)Cc3ccccc3)ccc2O[C@@H](C)CCCCO[C@@H]1CN(C)C | 0.0
C[C@@H]1CN([C@@H](C)CO)C(=O)c2cc(NS(=O)(=O)c3ccc(F)cc3)ccc2O[C@@H](C)CCCCO[C@@H]1CN(C)S(=O)(=O)c1ccc(Cl)cc1 | -0.1
CCCCCCC/C=N/NC(=O)CCCCCCC(=O)Nc1ccccc1O | -1.4
Cc1noc(C)c1NC(=O)N(C)C[C@@H]1Oc2c(NC(=O)C3CCCCC3)cccc2C(=O)N([C@H](C)CO)C[C@H]1C | -1.7
C[C@@H]1CCCCO[C@@H](CN(C)S(=O)(=O)c2ccccc2)[C@@H](C)CN([C@@H](C)CO)C(=O)c2cc(N(C)C)ccc2O1 | 0.2
COc1ccc(S(=O)(=O)N(C)C[C@H]2Oc3ccc(NC(=O)Nc4cccc5ccccc45)cc3C(=O)N([C@H](C)CO)C[C@@H]2C)cc1 | 0.6
C[C@@H]1CCCCO[C@H](CN(C)S(=O)(=O)c2ccc(Cl)cc2)[C@H](C)CN([C@@H](C)CO)C(=O)c2cc(NC(=O)CCCN(C)C)ccc2O1 | -1.1
O=C(NO)c1ccc(C(=O)N/N=C/c2cccs2)cc1 | -0.4
C[C@@H]1CN([C@@H](C)CO)C(=O)CCCn2cc(nn2)CO[C@H]1CN(C)S(=O)(=O)c1ccc(-n2cccn2)cc1 | 0.3

Among those listed so far, three have a COOH group.
SMILES | A1 apoptosis 2
C[C@H]1CN([C@@H](C)CO)C(=O)c2cc(NC(=O)Nc3ccc4c(c3)OCO4)ccc2O[C@@H]1CN(C)Cc1ccc(C(=O)O)cc1 | -0.2
C[C@H](CO)N1C[C@H](C)[C@@H](CN(C)Cc2ccc(C(=O)O)cc2)Oc2ccc(NS(=O)(=O)c3ccccc3)cc2C1=O | -0.6
C[C@@H]1CCCCO[C@@H](CN(C)Cc2ccc(C(=O)O)cc2)[C@@H](C)CN([C@@H](C)CO)C(=O)c2cc(NS(=O)(=O)c3cccs3)ccc2O1 | -0.4
